Screening results deposited in PubChem BioAssay by several laboratories.
RanGTP-Impb inh: inhibitors of RanGTP-importin-beta interaction, primary screen, biochemical, FRET, CFP-Ran, YFP-importin-beta, homogeneous; Ran GTPase (GTP-bound) - importin-beta complex; cell-free CFP-Ran/YFP-importin-beta FRET ratio; inhibition, % (test concentration not listed); actives 1.1% (n = 300,000); AID 2216, 2009;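 active = most replicates above 15%; inconclusive = exactly half above 15%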;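 note: 0% = DMSO wells and 100% = Ran loaded with GDP instead of GTP; wells of about 40 µL received 100 nL stock; the first replicate is given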
B2AR ag: beta2AR agonists driving receptor internalization, primary screen, cell-based, FAP fluorogen, flow cytometry | response, % (concentration not given with the values) | Beta-2 adrenergic receptor (Homo sapiens), P07550 | Am2.2-beta2AR cells; reference of the scale not given here | actives 0.43% (n = 340,000) | AID 504454, 2011;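 active = response above a set limit, near 3 SD of response in nonfluorescent compounds, cut at about 42% in these data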;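 note: stock transfer was 100 nL into about 11 µL; a reference agonist was the positive control; negative values mostly stem from fluorescent compounds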
Target sequence (P07550 whole entry, looked up): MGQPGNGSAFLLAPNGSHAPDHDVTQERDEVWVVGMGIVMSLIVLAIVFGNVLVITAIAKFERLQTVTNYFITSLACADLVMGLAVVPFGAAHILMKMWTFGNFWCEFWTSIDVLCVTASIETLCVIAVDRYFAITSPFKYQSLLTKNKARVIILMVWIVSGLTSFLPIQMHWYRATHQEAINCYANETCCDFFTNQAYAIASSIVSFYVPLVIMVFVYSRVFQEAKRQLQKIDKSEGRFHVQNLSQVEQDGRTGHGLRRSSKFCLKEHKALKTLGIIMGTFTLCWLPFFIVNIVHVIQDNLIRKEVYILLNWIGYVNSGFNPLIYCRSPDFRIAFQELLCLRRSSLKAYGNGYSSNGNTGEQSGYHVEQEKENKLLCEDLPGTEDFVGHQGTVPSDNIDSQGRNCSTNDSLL
LANA-H2B inh: blockers of LANA interaction with H2A/H2B – biochemical, FP readout, HTS, primary screen; actives 0.6% (n = 320,000); Protein LANA1 (Human herpesvirus 8 type P (isolate GK18)), Q9QR71; cell-free LANA-H2A/H2B peptide, fluorescence polarization; inhibition, % (concentration not given with the values); in the data active = inhibition mostly above about 10%, no sharp cut-off; inactive = mostly below about 6.7%;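 note: stock transfer was 7.5 nL into about 10 µL; 0% = median of vehicle wells and 100% = median of positive control wells; one replicate is shown; the record names a cut of 25% in any replicate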
Calb FLC: C. albicans growth inhibition with fluconazole, primary screen, CaCi-2 strain, Alamar Blue fluorescence | C. albicans CaCi-2 (fluconazole-resistant clinical isolate) + fluconazole, 48 h | growth inhibition, % (test concentration not listed) | actives 0.57% (n = 300,000) | AID 1979, 2009;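 active = most replicates above 75%; inconclusive = exactly half above 75%; inactive = most below 75%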;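 note: all wells also contain fluconazole at 8 µg/ml as a sub-toxic cotreatment; 0% = median of DMSO wells and 100% = median of geldanamycin control wells; wells of about 8 µL received 7.5 nL stock; the first replicate is given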
HNF4A DNA FP: change in binding of human HNF4A to DNA, primary screen, biochemical, fluorescence polarization, FITC-DNA; Hepatocyte nuclear factor 4-alpha (Homo sapiens), P41235; 1 h; activity change, % at 10 µM; actives 0.3% (n = 360,000); in the data active = activity change above about 30%, passing the limit was not always enough;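 note: controls were the assay level and a saturating level of protein; the project sought stronger binding though the title names inhibitors; some compounds called inactive have numbers as strong as hits; positive values seem to mean higher polarization but the record does not say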
Target sequence (P41235 whole entry, looked up): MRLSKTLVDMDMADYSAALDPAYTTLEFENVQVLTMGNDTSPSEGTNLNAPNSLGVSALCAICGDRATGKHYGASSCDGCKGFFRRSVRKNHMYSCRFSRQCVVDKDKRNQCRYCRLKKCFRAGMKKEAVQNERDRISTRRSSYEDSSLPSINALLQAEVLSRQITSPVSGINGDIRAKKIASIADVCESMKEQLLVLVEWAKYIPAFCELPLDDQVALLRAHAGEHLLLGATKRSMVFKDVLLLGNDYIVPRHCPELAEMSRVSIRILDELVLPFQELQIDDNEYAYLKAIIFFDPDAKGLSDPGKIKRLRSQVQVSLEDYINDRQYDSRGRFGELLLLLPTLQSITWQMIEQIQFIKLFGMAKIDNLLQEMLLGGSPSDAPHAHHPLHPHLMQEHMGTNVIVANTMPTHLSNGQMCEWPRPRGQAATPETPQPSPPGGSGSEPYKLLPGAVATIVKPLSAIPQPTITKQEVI
Vif TR-FRET: inhibitors of Vif binding to APOBEC3G peptide, primary screen, biochemical, TR-FRET, GST-Vif 1-94, biotin-A3G peptide, dose response retest (AID 1117319); Virion infectivity factor (Human immunodeficiency virus type 1 group M subtype B (isolate …; inhibition, %, or IC50 in µM where a hit was titrated; TR-FRET GST-Vif / biotin-A3G peptide binding; higher % means a stronger effect; test concentration not given here; strong numbers were not always called active; actives 0.57% (n = 260,000);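 active = above the screen mean plus three standard deviations and confirmed in dose response; inconclusive = results disagree or hit not tested in dose response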;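 note: Vif residues 1-94 fused to GST binding biotinylated APOBEC3G peptide 110-148; 0% = full assay without inhibitor and 100% = GST in place of GST-Vif; retest series ran down from 100 µM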
ALR inh: inhibitors of human ALR sulfhydryl oxidase, primary screen, biochemical, H2O2 detection, HRP-luminol luminescence, single point. inhibition, % (test concentration not listed). actives 3.8% (n = 290,000). FAD-linked sulfhydryl oxidase ALR (Homo sapiens), P55789. purified ALR, DTT oxidation;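 active = mean and each replicate at 75% or more; inconclusive = only one of the two met; inactive = neither met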;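 note: stock transfer was 7.5 nL into about 7.5 µL; 0% = neutral wells and 100% = wells with inactivated enzyme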
Target sequence (P55789 whole entry, looked up): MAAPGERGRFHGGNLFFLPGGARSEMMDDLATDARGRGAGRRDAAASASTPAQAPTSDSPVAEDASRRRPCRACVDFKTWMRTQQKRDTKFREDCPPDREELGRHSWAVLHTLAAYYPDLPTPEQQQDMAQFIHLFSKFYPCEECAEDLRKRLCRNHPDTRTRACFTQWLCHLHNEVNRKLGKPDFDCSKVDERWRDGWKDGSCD
* = called active by the depositor; ? = inconclusive; · = no result given; & = joins results of further samples.

Start of the listing, in advance, 3 compounds:
SMILES	RanGTP-Impb inh	B2AR ag	LANA-H2B inh	Calb FLC	HNF4A DNA FP	Vif TR-FRET	ALR inh
CCOc1cc(N2CCOCC2)c(OCC)cc1NC(=O)c1ccc(OCc2c(C)noc2C)c(OC)c1	-2.7	3	3.8	-4	1.6	26%	-20
Cc1csc(NC(=O)CCSCCc2ccccn2)n1	-2.9	-7	-0.3	-9	2.4	67%	-9
CC(C)(C)OC(=O)NC(Cc1ccccc1)C(=O)NCCCC(=O)O (stereo not given)	-5.6	0	0.4	-1	3.2	-8%	-2

All compounds of this part, from the start:
SMILES	RanGTP-Impb inh	B2AR ag	LANA-H2B inh	Calb FLC	HNF4A DNA FP	Vif TR-FRET	ALR inh
CCOc1cc(N2CCOCC2)c(OCC)cc1NC(=O)c1ccc(OCc2c(C)noc2C)c(OC)c1	-2.7	3	3.8	-4	1.6	26%	-20
Cc1csc(NC(=O)CCSCCc2ccccn2)n1	-2.9	-7	-0.3	-9	2.4	67%	-9
CC(C)(C)OC(=O)NC(Cc1ccccc1)C(=O)NCCCC(=O)O (stereo not given)	-5.6	0	0.4	-1	3.2	-8%	-2
CCOc1ccccc1NC(=S)NCC1CCCO1 (stereo not given)	-0.8	2	0.6	1	1.1	-2%	12
COC(=O)NC(NC(=S)Nc1ccc([N+](=O)[O-])cc1)C(Cl)(Cl)Cl (stereo not given)	1.7	22	0.5	-23	6.8	·	36
Cc1cc(C)c(S(=O)(=O)NCCc2ccccc2)c(C)c1	-5.3	1	-2.0	29	-4.7	·	-5
N#CCCN1CCN(S(=O)(=O)c2ccc(S(=O)(=O)N3CCCCCC3)cc2)CC1	2.7	1	11	-9	-4.6	1%	-3
CCOC(=O)C(CC)n1cnc2c(nnn2-c2ccc(F)cc2)c1=O (stereo not given)	1.2	-3	-5.2	0	-0.6	·	-4
CCOc1cc(C(=S)N2CCOCC2)ccc1OS(=O)(=O)c1ccc(C)cc1	-3.4	2	5.2	-7	1.7	0%	-5
Cc1cc(NC(=O)COC(=O)CSc2nc3cc(Cl)ccc3n2Cc2ccccc2)no1	?	5	-3.2	1	3.5	13%	-20
COc1ccc(C(=O)CN(C(=O)c2ccc(Cl)cc2)N2C(=O)c3ccccc3C2=O)cc1	-1.1	4	-3.1	32	1.0	4%	-6
CCCn1c(NC(=O)CSCC(=O)Nc2cc(C)on2)nc2ccccc21	·	0	-2.1	-4	-0.9	-1%	-9
CC12CN3CC(C)(CN(C1)C3c1ccc([N+](=O)[O-])o1)C2 (stereo not given)	7.1	-5	-5.6	-1	4.0	2%	-40
COc1ccc(CNC(=O)C2CCN(S(=O)(=O)c3ccc4c(c3)NC(=O)CO4)CC2)cc1	7.9	-1	3.8	-4	-1.6	2%	2
CCOc1ccc(N2C(=O)/C(=C/c3ccccc3OCC(=O)OC)N(CC(=O)OC)C2=S)cc1	-1.9	12	1.8	-2	-0.9	·	0
COc1ccc(NC(=O)Nc2cc(C(=O)O)ccc2N2CC3CC(C2)c2cccc(=O)n2C3)c(OC)c1 (stereo not given)	-1.3	4	6.6	1	-1.0	·	-8
CCN1CCN(Cc2ccc(NC(=O)c3cc(NC(=O)c4cc(-c5ccc(OC)cc5)n[nH]4)cc(OC)c3)cc2C(F)(F)F)CC1	1.1	26	-6.9	52	2.3	7%	-13
Cc1sc2ncnc(N3CCC(C(=O)NNC(=O)COc4ccc(Br)cc4)CC3)c2c1C	0.2	15	3.8	34	2.3	5%	9
NS(=O)(=O)c1ccc(NC(=O)COc2ccc(S(=O)(=O)N3CCCC3)cc2)cc1	-2.7	-3	-0.4	-4	1.3	-6%	·
CCOc1ccccc1CNC(c1ccccc1)c1ccccc1	1.0	-6	2.4	-16	-5.0	·	·
CCN(CC)S(=O)(=O)c1cc(NC(=O)C2CC(=O)N(Cc3ccccc3)C2)ccc1Cl (stereo not given)	·	0	3.6	·	6.7	-6%	·
COc1cccc(-c2cc(C(F)(F)F)n3ncc(C(=O)O)c3n2)c1	-4.8	-12	-6.2	·	-1.2	-1%	1
COC(=O)Cc1ccc(NC(=S)N2CCN(c3cc(Cl)ccc3C)CC2)cc1	-1.7	12	-3.9	-2	-0.5	-9%	2
Cc1ccc(NC(=O)Cc2nnc(SCC(=O)c3ccc(Br)cc3)n2C)cc1Cl	-0.9	·	3.7	-10	·	-18%	-14
CC(=O)c1ccc(S(=O)(=O)Nc2cccc(-c3cn4c(n3)SCC4)c2)cc1	2.2	-8	1.7	-21	-1.6	-5%	0
N#Cc1c(SCc2cccc(Cl)c2)sc(C(=O)c2ccccc2)c1N	1.9	-2	0.7	0	1.8	5%	·
Cc1oc2ccc(OCC(N)=O)cc2c1C(=O)OC(C)C	-0.7	19	-0.7	-8	-1.8	20%	·
COc1ccc(F)c(CN2CCC(n3nccc3NC(=O)CCCc3ccccc3)CC2)c1	-1.0	1	1.5	-5	7.0	·	-5
COC(=O)[C@H](Cc1ccc(O)cc1)NC(=O)Cn1cnc2c(SC)nc(N)nc21	·	-3	·	·	1.7	3%	·
O=C(CSc1nnc(Cc2ccccc2)o1)c1ccc2c(c1)OCO2	0.5	-5	2.3	-10	-2.9	-4%	·
CCCOC(=O)NC(CC)COC(=O)Nc1cccc(C)c1C (stereo not given)	2.2	1	-1.1	2	-3.9	5%	1
Cc1cc([N+](=O)[O-])nn1Cc1noc(C(=O)NCCCn2ccnc2)n1	1.8	2	-1.2	9	-0.6	?	-7
Cn1cc(C(=O)Nc2ccc(F)c(Cl)c2)cn1	-3.3	-10	4.4	-27	0.8	?	-18
O=C(COc1ncnc2sccc12)N1CCN(C(=O)c2ccco2)CC1	4.7	0	0.6	11	-4.0	26%	-5
CCC(=O)NCCc1nc2cc(NC(=O)c3ccc(Cl)cc3)ccc2n1C	4.1	-6	1.1	10	2.3	-3%	-10
N/C(=N\OC(=O)c1cccc(F)c1)c1cccc([N+](=O)[O-])c1	-0.6	-2	-2.0	12	5.1	·	-2
Cc1cc2ncn(C3CC(=O)N(C)C3=O)c2cc1C (stereo not given)	-0.8	9	3.1	15	-2.8	0%	-6
O=C(Cn1c(NCCO)nc2ccccc21)c1ccc(Cl)cc1Cl	1.3	18	3.4	-2	2.1	·	-2
Cn1c(CCNC(=O)c2ccccc2F)nnc1SCc1nc2ccccc2c(=O)[nH]1	?	17	1.9	-14	-0.7	2%	-2
N#CCN1C(=O)NC2(CCCc3sccc32)C1=O (stereo not given)	-6.3	-5	-1.7	4	2.7	·	-3
COC(=O)c1cc(-c2ccc(OC)cc2)on1	0.1	4	2.6	8	1.7	-9%	-17
CC(C)(C)c1ccc(-c2noc(C(=O)NN)n2)cc1	2.1	-5	-1.4	-13	-1.8	-17%	-7
CCn1cc(CN2CCC(C(=O)Nc3cccc(-c4cscn4)c3)CC2)cn1	1.8	-6	-3.5	-7	0.2	-1%	1
Cn1c(=O)c2c(nc(CN3CCC(C(N)=O)CC3)n2Cc2c(Cl)cccc2Cl)n(C)c1=O	0.0	1	-3.9	41	3.4	9%	-2
CC(=O)N1CCN(C(=O)COC(=O)COc2ccc(C#N)cc2)CC1	-2.7	6	-1.0	-7	1.4	-4%	-7
COc1cccc(N2C(=O)CC(N3CCC(c4nc5ccccc5[nH]4)CC3)C2=O)c1 (stereo not given)	2.4	-6	-3.4	3	-2.2	-8%	-8
O=C(O)CC1SC(=O)N(Cc2ccccc2)C1=O (stereo not given)	4.3	3	3.0	3	1.4	16%	-15
Cc1noc(C)c1CSCC(=O)OCC(=O)Nc1sccc1C#N	1.4	0	1.2	-1	0.0	12%	·
COc1ccc(/C=N/n2c(-c3n[nH]c4c3CCC4)n[nH]c2=S)cc1	2.9	3	3.2	-7	-0.2	9%	?
CC(=O)Nc1cccc(C(=O)OC(C)C(=O)N2CCc3ccccc32)c1 (stereo not given)	2.5	1	0.5	2	-1.7	-6%	1
CN(C)c1nc(N(C)C)n(C(=O)c2cccs2)n1	1.8	-4	-9.7	-6	1.1	-8%	1
O=C1c2ccccc2CCC1C(O)c1ccccn1 (stereo not given)	0.0	-5	-10	1	-2.1	?	-15
Cc1nc(N2CCN(C(=O)c3ccco3)CC2)c2c3c(sc2n1)CCCC3	3.9	-5	4.9	17	-4.1	-3%	1
Cc1cc(NC(=O)C2CC(=O)N(c3ccccc3C)C2)no1 (stereo not given)	0.2	-2	-3.2	-4	1.3	·	-5
Cc1cc(C)n(-c2cc(N3CCN(C(=O)c4ccccc4C)CC3)ccc2[N+](=O)[O-])n1	-3.6	4	0.9	0	1.3	-4%	-35
CCOC(=O)C1CCCC(NS(=O)(=O)c2ccc(NC(C)=O)cc2)C1 (stereo not given)	-0.8	0	2.8	-23	0.3	1%	-1
O=C(NC1CCCC1)C1CCCN1C(=O)Nc1ccccc1 (stereo not given)	-3.4	-1	-2.5	-1	-0.4	-3%	-2
COc1ccc(N=C2C(=Nc3ccc(OC)cc3)N(c3ccc(OC)cc3)C(=S)N2c2ccccc2)cc1	-4.9	5	-0.7	-26	6.5	-6%	-2
COc1ccc(NC(=O)c2ccc(=O)oc2)cc1	2.4	8	-5.6	1	-2.4	6%	14
COc1ccc(CC2(CO)CCN(Cc3ccncc3)CC2)cc1	3.8	1	·	-8	1.3	-4%	-1
(more compounds)
SMILES	RanGTP-Impb inh	B2AR ag	LANA-H2B inh	Calb FLC	HNF4A DNA FP	Vif TR-FRET	ALR inh
CN(C(=O)CSc1ccncc1)C1CCCN(Cc2ccccc2F)C1 (stereo not given)	-2.5	-1	-1.9	-2	5.2	0%	2
Cn1nc(CSc2ccccc2)c(C=O)c1Cl	1.9	0	-6.4	-35	-2.8	-3%	·
c1cc2c3c(cccc3c1)NC1(CCC3(CC1)Nc1cccc4cccc(c14)N3)N2	?	16	-1.2	-2	-5.4	30%	32
Cc1cc(C)n(CCNC(=O)C2CCC(=O)N(Cc3ccc(Cl)cc3)C2)n1 (stereo not given)	?	-1	1.6	-1	-1.8	·	2
COc1ccc(CCNC(=O)C2CCN(S(=O)(=O)c3cccc4nonc34)CC2)cc1OC	-1.6	6	-1.1	-7	2.4	-1%&1%	-6
CCOc1ccc(NC(=S)N(CCOC)C2CCN(C(C)C)CC2)cc1	-4.4	-2	0.9	-5	-4.4	-6%	-9
NC1=NC(=Nc2cccc(S(N)(=O)=O)c2)c2ccccc21	-0.2	0	-1.7	1	-1.5	-4%	-2
COC(=O)\C(C(C)=O)=C(/C=C/C=C/N(C)C)N(C)C	-0.5	0	-0.7	-2	-5.0	28%	19
CCN(CC)CCNC(=O)Cn1c(C)cc2ccccc2c1=O	3.1	6	-10	-16	1.0	-4%	·
CCC(CC)c1nnc(NC(=O)CS(=O)(=O)c2ccccc2)s1	-1.4	-3	-2.3	-2	1.0	2%	-5
CCOC(=O)N=S(=O)(Oc1ccc([N+](=O)[O-])cc1)c1ccc(Cl)cc1 (stereo not given)	2.6	1	-1.7	28	5.1	2%	-11
Cc1cc(C2=NNC(=NC3CC3)SC2)c(C)n1-c1c(C)n(C)n(-c2ccccc2)c1=O	-4.2	1	0.6	-24	2.6	·	6
CCc1cccc(OCCCN2C(=O)NC(C)(C)C2=O)c1	-1.9	-1	-6.4	-9	1.1	1%	4
C[C@@H]1COC(=O)[C@H](CC(=O)OC(C)(C)C)C/C=C\C[C@H](CC(=O)N(CCO)Cc2ccccc2)C(=O)N1	·	3	-2.2	·	2.4	·	-3
